GIV-Gai inh: blocks GIV peptide binding to rat Galpha-i3. Galpha-i3/FITC-GIV peptide fluorescence polarization, 90 min; stronger effect = lower value; scaled: aluminum fluoride 0%, vehicle 100%. 210,000 tested, 0.42% active. AID 1224905. percent of control (FP), % (concentration not given with the values);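 active = replicate mean at 85% of control or lower, very high polarization wells dropped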;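 also: wells of about 15 µL received 100 nL stock; the first replicate is given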
Target sequence (P08753 whole entry, looked up): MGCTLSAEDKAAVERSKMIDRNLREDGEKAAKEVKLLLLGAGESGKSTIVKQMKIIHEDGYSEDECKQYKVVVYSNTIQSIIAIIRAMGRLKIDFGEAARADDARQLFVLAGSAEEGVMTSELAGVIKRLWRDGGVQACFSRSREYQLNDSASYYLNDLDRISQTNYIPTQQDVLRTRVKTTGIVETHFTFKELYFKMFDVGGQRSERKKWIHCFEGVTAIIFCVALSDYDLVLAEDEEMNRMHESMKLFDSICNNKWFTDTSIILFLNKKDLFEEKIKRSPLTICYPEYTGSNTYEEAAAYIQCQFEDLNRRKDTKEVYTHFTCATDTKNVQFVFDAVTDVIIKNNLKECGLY
Starred values were filed as active, the others as inactive.

GIV-Gai inh | SMILES
91.8 | O=C(Nc1ccc2c(c1)OCO2)Nc1cccn2c(C3CCC3)nnc12
142.8 | Cc1csc(-c2cc(S(=O)(=O)NCCCc3ccccc3)c(C)s2)n1
109.1 | Cc1ccc(/C(O)=C2\C(=O)C(=O)N(CCN(C)C)C2c2ccc(C)cc2)cc1 (centres undefined)
110.1 | Cc1nc(SCC2=C(C(=O)OC(C)C)C(c3ccccc3Cl)C(C#N)=C(N)O2)c(C#N)c(C)c1C (centres undefined)
103.5 | CCOC(=O)C1=C(C)NC2=C(C(=O)C(C(=O)OCC)C(c3ccccc3OC)C2)C1c1ccccc1OC (centres undefined)
104.5 | CCS(=O)(=O)Nc1cnc(N2CCNCC2)c(C(=O)NC(C)C)c1
109.8 | CC(=O)c1c(C)oc2ccc(N(C(=O)c3ccc(Cl)cc3)S(=O)(=O)c3cccc([N+](=O)[O-])c3)cc12
140.6 | CCOc1cc(/C=C2/C(=O)NC(=S)N(c3ccc(Br)cc3C)C2=O)ccc1O
104.5 | Cc1nc(SCc2nc3cc([N+](=O)[O-])c([N+](=O)[O-])cc3[nH]2)c(C#N)c(C)c1Cl
117.8 | COc1ccccc1N1C(=O)c2ccccc2NC12C(=O)N(Cc1ccccc1Cl)c1ccccc12 (centres undefined)
107.2 | Cn1nnnc1SCC(=O)Nc1ccc2nc(SCC(=O)NC3CCCCC3)sc2c1
97.4 | O=S(=O)(c1ccc(-c2nnc(C3CC3)o2)o1)N1CCN(c2ccccn2)CC1
107.2 | CCCCOC(=O)c1ccc(NCN2C(=O)S/C(=C\c3ccc(O)c(OC)c3)C2=O)cc1
100.8 | CCC(=O)Nc1cccc(-c2noc(C3CCCN(C(=O)Cc4ccc(C)cc4)C3)n2)c1 (centres undefined)
124.6 | Cc1ccc(NC2=CC(c3cccc([N+](=O)[O-])c3)N(c3ccc(C)cc3)C2=O)cc1 (centres undefined)
109.5 | CN(c1ccc(Cl)cc1)S(=O)(=O)c1ccc2[nH]cc(C(=O)N3CCC4(CC3)OCCO4)c(=O)c2c1
102.5 | COc1ccc(C2C=C(c3ccc(Br)cc3)Nc3nc4ccccc4n32)cc1OC (centres undefined)
106.4 | O=C(Nc1cccc(F)c1)N1CCN(Cc2nc3cccnc3n2-c2cccc(F)c2)CC1
102.1 | Cc1nc(OCC(=O)NCCc2c(C)noc2C)c2c(-c3ccc(F)cc3)noc2n1
97.8 | Cc1nn(-c2ccc3nncn3n2)c(C)c1CCC(=O)NC1CCCC1
106.9 | CCCCNc1nc(SCC(=O)NCC2CCCO2)nc2ccccc12 (centres undefined)
116.7 | O=C1CC(c2ccc(Cl)cc2)c2cc(Br)c3ccccc3c2N1 (centres undefined)
100.0 | O=C(CSc1nnc2ccc(C(=O)Nc3cccc(F)c3)cn12)Nc1ccc2c(c1)OCCO2
105.3 | COC(=O)c1cccc(N2C(=O)/C(=C/c3ccc(-c4cc(Cl)ccc4Cl)o3)C=C2c2ccccc2)c1
101.0 | COc1ccc(NC(=O)c2nnc(C3CCN(C(=O)Nc4cccc(OC)c4)CC3)s2)cc1
107.5 | O=C(CSc1nc2ccccc2c(=O)n1CCC(=O)N1CCN(c2ccccc2)CC1)Nc1ccccc1Cl
107.1 | COc1ccc(NC(=O)Cn2cccc2-c2nnc(C)o2)cc1
107.3 | O=C(Nc1ccc(N2S(=O)(=O)c3ccccc3S2(=O)=O)cc1)c1cccs1
109.2 | O=S(=O)(NCCc1n[nH]c(Cc2cccc(F)c2)n1)c1ccccc1
106.7 | CN1CCCn2nc(C3CCN(C(=O)Nc4ccc5c(c4)OCCO5)CC3)cc2C1=O
119.3 | CCc1ccc(S(=O)(=O)Nc2cc3c(C(=O)OC)c(C(C)(C)C)oc3c3ccccc23)cc1
107.0 | O=C(NC1CCCCC1)c1cccc(Nc2ncc(-c3ccc(F)cc3)cn2)c1
110.2 | O=C1c2ccccc2NC(c2ccc(OCc3ccccc3)cc2)N1c1ccc(Cl)c(Cl)c1 (centres undefined)
101.4 | Cc1cc(C(=O)N2CCCC2c2cc(C)no2)on1 (centres undefined)
102.6 | CCc1ccc(S(=O)(=O)c2cnc(N3CCN(c4ccccc4)CC3)nc2N)cc1
115.4 | COc1ccc([N+](=O)[O-])cc1-c1[nH]c(-c2cc(OC)c(O)c(OC)c2)nc1-c1ccccc1

Continued (two carried over from the part before).
GIV-Gai inh | SMILES
102.6 | CCc1ccc(S(=O)(=O)c2cnc(N3CCN(c4ccccc4)CC3)nc2N)cc1
115.4 | COc1ccc([N+](=O)[O-])cc1-c1[nH]c(-c2cc(OC)c(O)c(OC)c2)nc1-c1ccccc1
108.7 | COc1ccc(C(=O)Nc2ccccc2SCc2nnc(-c3ccccc3)o2)cc1OC
103.9 | Cc1ccc(C(=O)N2CCc3[nH]cnc3C23CCCCC3)s1
110.1 | Cc1ccc(CNC2=NCCNC23CCN(S(=O)(=O)c2ccc(C)cc2C)CC3)cc1
107.8 | COc1ccc(C(=O)Oc2cccc(NC3=NS(=O)(=O)c4ccccc43)c2)c(OC)c1
101.2 | CCOC(=O)c1c(NC(=O)CSc2nnc(CNC(=O)c3cccc(F)c3)n2C)sc2c1CCCC2
98.3 | Cc1ccc(-n2ccc(=O)c(-c3nc(-c4ccc(Cl)c(F)c4)no3)n2)cc1
106.3 | COc1ccc(N(CC(=O)NCCc2ccc(OC)c(OC)c2)S(=O)(=O)c2ccc(C)cc2)cc1
104.5 | CC1(C)CC(=O)C(C(C2=C(O)CC(C)(C)CC2=O)c2cccc([N+](=O)[O-])c2)C(=O)C1 (centres undefined)
98.7 | CC(=O)N1CCC(NC(=O)NC(C)(C)C)C1 (centres undefined)
107.0 | Cc1nc(Oc2ccc(F)cc2)c(C#N)c(C)c1Cl
105.1 | COCCNC(=O)c1nnc2ccc(-c3ccccc3)nn12
99.7 | O=S(=O)(c1ccc2c(c1)OCCO2)N1CCN(c2ncnc3c2nnn3-c2ccc(F)cc2)CC1

Some values from the entries so far:
Reading for COc1ccc(C(=O)Oc2cccc(NC3=NS(=O)(=O)c4ccccc43)c2)c(OC)c1 in GIV-Gai inh: 107.8
Reading for O=S(=O)(c1ccc2c(c1)OCCO2)N1CCN(c2ncnc3c2nnn3-c2ccc(F)cc2)CC1 in GIV-Gai inh: 99.7

Following part.
GIV-Gai inh | SMILES
108.4 | C=CCOC(=O)C1=C(C)NC(SCC(=O)Nc2ccc(CC)cc2)=C(C#N)C1c1ccco1 (centres undefined)
109.1 | Cc1csc(NC(=O)c2nn(-c3ccccc3)c3c(=O)n(C)cnc23)n1
99.4 | CCCN1CCN(Cc2nc3nc(C)cc(N4CCCCC4)n3n2)CC1
-1.1* | CC(=O)OCc1cc(C2C(C#N)=C(N)OC(N)=C2C#N)c(C)cc1C
103.5 | Cc1ccccc1NC(=O)c1sc2nc3c(cc2c1N)C(=O)CC(C)(C)C3
108.5 | O=c1[nH]c(=O)n(-c2nc(-c3ccccc3)oc2-c2ccccc2)cc1Cl
113.4 | O=C1C(=O)N(c2nccs2)C(c2ccccc2)/C1=C(\O)c1ccc(Cl)cc1 (centres undefined)
97.9 | Cc1ccc(S(=O)(=O)N2CCN(c3ncnc4c3nnn4-c3ccccc3)CC2)cc1
104.9 | Cn1nccc1C(=O)NC1CCN(c2ncnc3c2CCC3)C1 (centres undefined)
103.1 | Cc1cccc(NC2=NC(=S)N(c3ccc(Cl)cc3)C23CCCC3)c1
98.6 | CCOC(=O)CC(NC(=O)Nc1c(-c2cccnc2)[nH]c2ccccc12)c1ccccc1 (centres undefined)
110.1 | CN(C)c1cc(-n2cccn2)ncn1
109.7 | Cc1cc(=O)n(CC(=O)N2CCN(c3ccccc3)CC2)c(-n2nc(C)cc2C)n1
106.4 | COC(=O)c1ccc(C(=O)OC)c(NC(=O)c2cnn3c(C(F)(F)F)cc(-c4ccc(C)cc4)nc23)c1
100.9 | Cc1ccc2nc(C(=O)Nc3ccccc3F)cc(N3CCCCC3)c2c1
98.4 | O=C(NC1CCCCCC1)C1CCN(c2cncnc2N2CCCC2)CC1
108.7 | Cn1c2c(c(=O)[nH]c1=O)C(c1ccc([N+](=O)[O-])cc1)C1=C(N2)c2ccccc2C1=O (centres undefined)
98.3 | COc1cccc(CNC(=O)c2nc(N3CCCC3)c3c(C)c(C)n(-c4cccc(Cl)c4)c3n2)c1
110.4 | Cc1cc(C)c(C)c(C2=NON3N(C(=O)c4ccc(F)cc4)c4ccccc4N23)c1C
98.4 | COc1ccc(NC(=O)c2c(S(=O)(=O)Nc3ccc(Cl)cc3)n[nH]c2C)cc1OC
102.2 | CCCn1c(=O)c(N2CCC(NC(=O)Nc3cccc(F)c3)CC2)nc2ccccc21
99.8 | COc1ccc(CCNC(=O)c2c[nH]c3ccc(S(=O)(=O)N4CCc5ccccc54)cc3c2=O)cc1OC
113.2 | COCCNC(=O)c1ccc2c(=O)n(Cc3ccc(Cl)cc3)c(SCc3cc(F)cc4c3OCOC4)nc2c1
106.9 | CCOc1ccc(NC(=O)Nc2cccc(OCc3cc(=O)n4cc(Cl)ccc4n3)c2)cc1

The last five records of the section above are carried over, then new ones follow.
GIV-Gai inh | SMILES
98.4 | COc1ccc(NC(=O)c2c(S(=O)(=O)Nc3ccc(Cl)cc3)n[nH]c2C)cc1OC
102.2 | CCCn1c(=O)c(N2CCC(NC(=O)Nc3cccc(F)c3)CC2)nc2ccccc21
99.8 | COc1ccc(CCNC(=O)c2c[nH]c3ccc(S(=O)(=O)N4CCc5ccccc54)cc3c2=O)cc1OC
113.2 | COCCNC(=O)c1ccc2c(=O)n(Cc3ccc(Cl)cc3)c(SCc3cc(F)cc4c3OCOC4)nc2c1
106.9 | CCOc1ccc(NC(=O)Nc2cccc(OCc3cc(=O)n4cc(Cl)ccc4n3)c2)cc1
107.1 | O=C(c1ccc2c(=O)n(CC3CCCO3)c(=S)[nH]c2c1)N1CCN(Cc2ccc3c(c2)OCO3)CC1 (centres undefined)
104.1 | O=C(CN1CCc2ccccc2C1C(=O)N1CCCC1)N1CCN(C2CCCCC2)CC1 (centres undefined)
105.2 | O=C(Nc1ccc(F)cc1F)N1CCC(n2cnc3c(Cl)cccc3c2=O)CC1
110.2 | O=C(c1sc2ncccc2c1-n1cccc1)N1CCN(c2ccccc2Cl)CC1
110.5 | CN(C)S(=O)(=O)c1ccc2c(c1)c(C(=O)n1ccnc1)cn2C
111.0 | Cn1c(-c2ccccc2)nn(C2CC(=O)C3OCC2O3)c1=S (centres undefined)
96.8 | COc1cc(OC)c(NC(=O)CCn2cnc3c(-c4ccc(C)cc4)noc3c2=O)cc1Cl
103.1 | Cc1cccc(Nc2nc(O)c(/C=C3/C(=O)C=Cc4ccccc43)s2)c1
124.6 | Cc1c(-c2ccccc2)cn2ccn3c(C)ccc3c12
112.3 | O=C1/C(=C/c2ccc(-c3ccc(Br)cc3)o2)C=C(c2ccccc2)N1c1ccc(O)cc1
95.6 | Cc1ccc(Nc2nc(-c3ccc(Cl)cc3)cs2)nc1
102.9 | CCCCNC(=O)C1CCCN(C(=O)CCc2c(C)[nH]c(C(=O)OCC)c2C)C1 (centres undefined)
105.4 | CCC(C)c1ccc(N2C(=O)c3ccccc3NC2c2ccc(OCc3ccccc3)cc2)cc1 (centres undefined)
119.4 | NS(=O)(=O)c1ccc(NC(=O)CSc2nnc(-c3ccccc3)c(-c3ccccc3)n2)cc1
108.4 | CCC(CC)C(=O)Nc1cc(Cl)ccc1OCc1cc(=O)n2ccsc2n1
112.2 | CSc1nc2c(sc(=S)n2CCc2ccccc2)c(=O)n1Cc1ccco1
109.7 | S=C1N=C(Nc2ccccc2)C2(CCCCC2)N1c1ccc(Cl)cc1
103.1 | O=C1c2ccccc2C(=O)N1CC1c2ccccc2CCN1S(=O)(=O)c1ccc(Cl)cc1 (centres undefined)
94.4 | Cc1noc(C)c1C1CCCN1C(=O)c1cc(C(C)C)no1 (centres undefined)
120.5 | CCOP(=O)(OCC)c1nc(-c2ccc(Cl)cc2Cl)oc1NCc1ccccc1
115.1 | Cc1ccc(S(=O)(=O)N2c3cccc4cccc(c34)S2(=O)=O)cc1
112.4 | O=C(CN1CCCCC1)N1c2ccccc2Sc2ccc(Cl)cc21
112.3 | COc1ccc(C2N(c3cccc(C)c3)CCN2c2cccc(C)c2)cc1Br
108.5 | O=c1oc2c3c(ccc2c2c1CCC2)OCN(c1ccc(F)cc1)C3
109.0 | CCOc1ccc(-n2c(=S)sc3c2nc(=S)n2c4ccccc4[nH]c32)cc1
116.2 | O=C1CCCN1CCCNc1ncnc2c1c(-c1ccccc1)cn2-c1cccc(C(F)(F)F)c1
103.4 | CCNc1cc(C)nc(Nc2ccc(NS(=O)(=O)c3ccc(C)cc3C)cc2)n1
98.0 | CCC(C)NC(=O)c1ncoc1-c1ccccc1C(=O)N1CCCC1 (centres undefined)
102.8 | COc1cc(OC)cc(C(=O)Nc2cc(C(=O)Nc3ccccc3OC)ccc2N2CC3CC(C2)c2cccc(=O)n2C3)c1 (centres undefined)
99.8 | CCOC(=O)C(NC(=O)c1cc2nc(-c3cccs3)cc(C(F)(F)F)n2n1)C(=O)OCC
108.4 | Cc1ccc(C(=O)NC2CCCC2)cc1NC(=O)c1nsc2ccccc12
101.0 | COc1ccc(S(=O)(=O)N2CCc3c(c(CN(C(C)=O)c4ccccc4)nn3C)C2)cc1
-3.2* | COc1ccc(C(=O)Nc2sc3c(c2-c2nc4ccccc4s2)CCN(C(C)C)C3)cc1OC
101.1 | Nc1c(C(=O)Nc2cccc(Cl)c2)sc2nc3c(cc12)C(=O)CCC3
107.3 | CCOc1ccc2c(c1)C1=C(SC(C(=O)OC)=C(C(=O)OC)C13SC(C(=O)OC)=C(C(=O)OC)S3)C(C)(C)N2C(=O)CC
145.3 | CCN(CC)c1ccc2cc(-c3nc(-c4ccc(Br)cc4)cs3)c(=Nc3ccccc3OC)oc2c1
110.2 | CCN(Cc1ccccc1)S(=O)(=O)c1cc(C(=O)Nc2ccc(C)c(F)c2)ccc1F
109.0 | COC(=O)c1cc(NC(=O)c2cc3nc(-c4ccc(OC)c(OC)c4)cc(C(F)(F)F)n3n2)cc(C(=O)OC)c1
106.5 | Cc1cc(N)nn1C(=O)CSc1nc2cc(C(=O)NCc3ccco3)ccc2c(=O)n1Cc1ccco1
118.2 | COc1ccc(N(C)CN2C(=O)/C(=C\c3cccc(F)c3)SC2=S)cc1

These rows are one share of the data; count on the stated rates, not on these rows.
